# Compound activity deposited in PubChem BioAssay by National Center for Advancing Translational Sciences (NCATS).
# gsp antag = antagonizes gsp, the McCune-Albright syndrome mutation; gsp-mutant cells, cAMP HTRF, 30 min; control for the full effect not named in the record; Potency, µM (titrated, usually from 76.9 µM), for inactives: at the highest dose activity change, negative = inhibition, actives largely listed as inhibitors; actives 0.4% (n = 340,000); active = falling curve of any shape with a large fitted effect; inconclusive = falling curve, mostly with a smaller effect; inactive = flat or rising curve; cell line not stated here;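 also: intracellular cAMP measured with PDE inhibitor Ro 20-1724 present during compound exposure; potency is read from the fitted curve at half-maximal effect; % is scaled to controls: 0 for no effect and ±100 for the full control effect; nearly all actives have a fitted effect of over 65% in size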
#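 Cells in G418 medium, seeded 16-24 h, 37C; buffer exchange to DPBS + 1 mM CaCl2, 0.5 mM MgCl2, 0.05% BSA; cpds in DMSO + […] (300 uM stock), 30 min 37C; HTRF cAMP detection.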
# Menin-MLL FL inh = displaces fluorescein MLL peptide from human menin | 290,000 tested, under 10 active | AID 1766 | Fluorescence polarization, fluorescein-MLL peptide displacement from menin | FP activity change, % at 61.4 µM; inconclusive = falling polarisation curve, or a change in total fluorescence; inactive = total fluorescence flat and polarisation flat or rising; no compound was filed as active; the % refers to the polarisation; negative = inhibition;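 also: % of control where 0% means no effect; inhibitors lower the polarisation; unlabelled MLL peptide was the positive control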
# gsp ag = agonists of gsp mutant (McCune-Albright syndrome); actives 0.13% (n = 340,000); gsp mutant cells, cAMP HTRF, 30 min; control for the full effect not named in the record; Potency, µM (doses to about 76.9 µM), for the others: top-dose activation (cAMP increase), hits mostly activators; active = well fitted activation curve with a large enough effect; inconclusive = small, poorly fitted or top-dose-only effect, or another doubt; inactive = no such curve, though single readings can be large or run the other way; cell line not stated here;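 also: phosphodiesterase inhibitor Ro 20-1724 added with compounds to block cAMP breakdown; potency is read from the fitted curve at half-maximal effect; nearly all actives have a fitted effect of over 60% in size; about a fifth of the inactives were tested at one dose only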
#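 Cells in DMEM/10% FBS with G418 were pretreated with compounds in DMSO plus […] (300 uM stock) for 30 min at 37C. cAMP was measured by HTRF (cAMP-d2 plus anti-cAMP antibody-K) after 30 min at room temperature.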
# TRPV1 PAM = enhances activation of the human vanilloid receptor TRPV1 | Q8NER1 | TRPV1-expressing cells, Fluo-8 calcium influx, capsaicin EC20 potentiation; host cell line not named in the record; control for the full effect not named in the record | potentiation, % at 8.33 µM | actives 0.02% (n = 320,000) | AID 540277; active means potentiation above 80%; inconclusive means 30% to 80%; inactive means below 30%; also: 0% is about no effect
# Target sequence (Q8NER1 whole entry, looked up): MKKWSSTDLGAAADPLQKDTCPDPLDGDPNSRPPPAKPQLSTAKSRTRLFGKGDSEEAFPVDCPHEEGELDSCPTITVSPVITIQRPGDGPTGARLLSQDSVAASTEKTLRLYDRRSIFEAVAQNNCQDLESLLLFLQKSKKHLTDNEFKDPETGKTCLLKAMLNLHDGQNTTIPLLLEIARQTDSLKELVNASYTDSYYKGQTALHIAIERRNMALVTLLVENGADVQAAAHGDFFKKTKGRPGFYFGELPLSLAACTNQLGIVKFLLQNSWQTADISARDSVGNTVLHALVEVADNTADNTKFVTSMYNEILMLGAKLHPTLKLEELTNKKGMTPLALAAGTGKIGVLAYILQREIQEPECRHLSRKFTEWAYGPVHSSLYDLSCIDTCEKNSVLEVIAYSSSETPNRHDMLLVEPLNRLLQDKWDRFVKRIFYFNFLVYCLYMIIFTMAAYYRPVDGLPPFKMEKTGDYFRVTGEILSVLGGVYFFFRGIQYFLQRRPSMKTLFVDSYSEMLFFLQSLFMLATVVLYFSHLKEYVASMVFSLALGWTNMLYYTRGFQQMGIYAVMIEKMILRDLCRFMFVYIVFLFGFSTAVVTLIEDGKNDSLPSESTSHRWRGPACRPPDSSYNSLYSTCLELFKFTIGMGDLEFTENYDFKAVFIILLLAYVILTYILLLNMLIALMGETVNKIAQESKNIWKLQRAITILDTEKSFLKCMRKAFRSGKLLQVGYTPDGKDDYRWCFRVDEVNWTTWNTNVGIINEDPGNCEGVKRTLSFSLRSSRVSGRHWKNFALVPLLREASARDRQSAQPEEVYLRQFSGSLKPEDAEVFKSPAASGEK
#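 TRPV1-expressing cells were cultured overnight at 35.5C and loaded with Fluo-8 calcium dye for 40 to 90 min at room temperature. After a 10 s baseline, compound was added and calcium influx was read kinetically for 3 min (ex 480/em 520 nm).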
# ClpP mod = qHTS Assay for Activators of ClpP; purified B. subtilis ClpP, FRET peptide cleavage, 20 min; AID 651965, 2013; actives 1.9% (n = 340,000); Potency, µM (series often up to 57.5 µM), inactives show top-dose activity change, negative = active; ATP-dependent Clp protease proteolytic subunit (Bacillus subtilis (strain 168)), P80244; active = well fitted falling curve with a large enough effect; inconclusive = small, poorly fitted or top-dose-only effect; inactive = no such curve, though single readings can be large or run the other way; also: potency is read from the fitted curve at half-maximal effect; the source files actives as falling curves though it sought activators and does not explain the sign; nearly all actives have a fitted effect of over 65% in size; many hits overshoot -100%
# Target sequence (P80244 whole entry, looked up): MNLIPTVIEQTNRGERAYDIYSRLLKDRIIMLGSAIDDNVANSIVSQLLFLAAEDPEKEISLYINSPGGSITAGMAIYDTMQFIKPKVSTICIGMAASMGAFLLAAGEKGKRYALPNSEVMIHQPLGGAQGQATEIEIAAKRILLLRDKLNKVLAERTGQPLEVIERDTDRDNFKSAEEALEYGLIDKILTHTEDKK
#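 Purified B. subtilis ClpP, 10 microg/mL final in Tris/HCl pH8 with KCl, BSA, glycerol and Tween-20, cleaved an Abz/nitrotyrosine-quenched decapeptide. Fluorescence (ex 320, em 430) was read at 0 and 20 min at room temperature. Delta was normalized to 5.8 microM ADEP and DMSO/no-enzyme controls.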
# CtBP-E1A blk = inhibitors of CtBP/E1A interaction; AlphaScreen GST-E1A/His-CtBP binding, 1536-well; active compounds read low; control for the full effect not named in the record; activity change, % (test concentration not listed); actives 0.49% (n = 340,000); in the data active means activity change below about -65%; inconclusive means about -30% to -65%; inactive means above about -30%; also: % is scaled to controls: 0 for no effect and ±100 for the full control effect
#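 In 5 uL wells, 23 nL compound meets equimolar GST-E1A and His-CtBP (5X stock 125 nM each) for 2 h, 37 °C. Beads (5X, 50 ug/mL) then 1 h, 37 °C, dark.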
# Sfp inh = inhibitors of Bacillus subtilis Sfp phosphopantetheinyl transferase | actives 3.5% (n = 310,000) | Q9F4F7 | AID 1490 | Biochemical Sfp PPTase activity, qHTS | Potency, µM, without a hit: max response, negative = inhibition, actives largely listed as inhibitors; active = well fitted inhibition curve with a large enough effect; inconclusive = small, poorly fitted or top-dose-only effect, or another doubt; inactive = no such curve, though single readings can be large or run the other way;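 also: the enzyme is Sfp with the accession as filed and its product quenches rhodamine fluorescence; potency is read from the fitted curve at half-maximal effect; 0% = enzyme reaction without inhibitor and -100% = no enzyme wells; top concentration of the series not given in the record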
#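 Fluorescence-quenching assay with 15 nM Sfp, 5 uM rhodamine-CoA and 12.5 uM BHQ-2-labelled ybbR peptide in pH 7.6 Hepes/MgCl2 buffer. Enzyme was pre-incubated with compound for 15 min at room temperature. Rate was taken from the 30-min fluorescence change (525/598 nm).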
# Starred values were filed as active, the others as inactive; ? = inconclusive; nt = not tested or not shown; [ ] = remark or other dose. Not a hit list; 5.3% or so of the library scored in one or more.
# The line under a structure holds: ClpP mod	TRPV1 PAM	gsp ag	Sfp inh	CtBP-E1A blk	gsp antag	Menin-MLL FL inh
O=C(c1ccc(=O)[nH]c1)N1CCN(S(=O)(=O)c2ccc3ccccc3c2)CC1
    -1.7%	-7	?	nt	-3	-1%	nt
CC(=O)/C(=N\Nc1ccccc1)Oc1ccc(Br)cc1
    nt	nt	34%[15.4 µM]	nt	-8	-12%	nt
O=C(CCNC(=O)c1ccc([N+](=O)[O-])cc1)NCCc1ccccc1
    nt	25	-38%[inhibitor]	4%	2	-16%	-0.3
CCOCCCN(Cc1ccco1)S(=O)(=O)c1csc(C(N)=O)c1
    -0.1%	21	20%	5%	2	10%	5.7
Nn1c(SCC(=O)N2CCCC2=O)nnc1-c1cccs1
    3.0%	-1	0%	nt	-24	7%	nt
Cc1ccccc1Nc1nnc(SCC(=O)c2c(N)n(C)c(=O)n(C)c2=O)s1
    -2.5%	4	-13%[15.4 µM]	-12%	-22	0%	2.2
O=C(Nc1ccccc1C(F)(F)F)N1CCCC(O)C1 (centres undefined)
    0.8%	-2	13%	8%	5	-1%	-2.9
Cc1ccc(NC(=O)C(=O)NCCc2c[nH]c3ccccc23)c(C)c1
    nt	-36	-14%	3%	5	10%	-4.4
COc1cc([N+](=O)[O-])ccc1NC(=S)Nn1cnnc1
    -2.7%	-16	-13%	20µM*	-20	4%	nt
CC12CCC(C(=O)N3CCCc4ccccc43)(CC1=O)C2(C)C (centres undefined)
    -7.2%	-10	-4%	2%	4	-13%	3.5
C=CCC[C@@H](Cc1ccc(F)cc1)C(=O)OC[C@@H](Cc1ccccc1)NC(=O)[C@@H](CC=C)CC(=O)N[C@@H](CO)Cc1ccccc1
    0.6%	nt	-1%	nt	4	-4%	nt
CC1CC(=O)c2cnc(N3CCOCC3)nc2C1 (centres undefined)
    -6.5%	-3	3%	-6%	0	-5%	0.1
CCN(CC(=O)NCc1cccs1)S(=O)(=O)c1cccc(Br)c1
    0.6%	-10	2%	nt	nt	-7%	nt
Cc1cccc(-c2ccc(NC(=O)C3CCN(CC4CC4)CC3)cc2)c1
    nt	2	17%	1%	2	11%	-4.9
O=C(Oc1ccc(N(Cc2cccs2)C2=NS(=O)(=O)c3ccccc32)cc1)c1ccco1
    -21%	17	3%	7%	-3	-8%	0.1
COc1ccc(C2CC(c3c(-c4ccccc4)c4cc(Cl)ccc4[nH]c3=O)=NN2S(C)(=O)=O)cc1OC (centres undefined)
    -3.9%	2	-8%	-17%	0	?	-2.2
CN(C)c1ccc(NS(=O)(=O)c2ccc(Cl)cc2)cc1
    -8.1%	-1	-17%	-5%	-18	-8%	3.1
CC(=O)Nc1ccc(NC(=O)COC(=O)c2cc([N+](=O)[O-])ccc2N2CCOCC2)cc1
    0.2%	-12	-2%	20%	7	12%	3.7
Cc1nnc(SCC(=O)NC(=O)NC(C)C)s1
    0.7%	19	-8%	16%	nt	7%	0.3
O=C(CN1CCCCC1)NN(Cc1ccccc1)c1ccccc1
    nt	7	-6%[15.4 µM]	-10%	nt	7%	1.2

# Single entries from the list.
# CC(=O)/C(=N\Nc1ccccc1)Oc1ccc(Br)cc1 @ CtBP-E1A blk: -8
# Cc1cccc(-c2ccc(NC(=O)C3CCN(CC4CC4)CC3)cc2)c1 @ gsp antag: 11%
# CN(C)c1ccc(NS(=O)(=O)c2ccc(Cl)cc2)cc1 @ Menin-MLL FL inh: 3.1
# Cc1ccccc1Nc1nnc(SCC(=O)c2c(N)n(C)c(=O)n(C)c2=O)s1 @ gsp antag: 0%

# The results go on:
# The line under a structure holds: ClpP mod	TRPV1 PAM	gsp ag	Sfp inh	CtBP-E1A blk	gsp antag	Menin-MLL FL inh
CC(NC(=O)COC(=O)CCC(=O)c1ccc(F)cc1)c1ccccc1 (centres undefined)
    -4.9%	nt	-11%	nt	0	-1%	nt
Cc1nc(C)c(-c2csc(NCCc3ccccc3)n2)s1
    -8.0%	27	15%	50µM*	-7	?	3.3
Cc1cccc(C(C)C)c1NC(=O)c1c(-c2ccccc2)noc1C
    3.0%	-7	-1%	-2%	2	9%	2.3
O=C1CC(N2CCN(Cc3ccc(Cl)cc3)CC2)C(=O)N1CCc1ccccc1 (centres undefined)
    nt	12	?	13%	3	-5%	1.2
C/C(=N/NC(=O)c1ccoc1C)C12CC3CC(CC(C3)C1)C2
    -0.5%	4	?	-5%	0	7%	6.9
CCN1CCN(c2cc(C)c3cc(NC(=S)N4CCCC(C)C4)ccc3n2)CC1 (centres undefined)
    nt	3	7%[15.4 µM]	8%	-11	-3%	-4.3
CCOC(=O)C1=CN(Cc2ccc(OC)cc2)C=C(C(=O)OCC)C1c1cccs1
    nt	0	-2%[15.4 µM]	3%	73	-11%	0.3
O=C(CCc1ccc(S(=O)(=O)NCCc2ccccc2)cc1)NCc1ccc2c(c1)OCO2
    -0.1%	-2	13%	6%	8	0%	-1.0
O=C1COc2ccc(S(=O)(=O)N3CCC(C(=O)NCc4ccc(F)cc4)CC3)cc2N1
    1.1%	-13	-49%[inhibitor]	21%	1	-17%	nt
CC(C)OC(=O)c1sc2nc3c(cc2c1N)C(=O)CCC3
    0.0%	-16	9%	4%	7	6%	1.4
O=C(c1ccccc1)C1CCN(C(=O)C2CCC(=O)N(Cc3cccc(F)c3)C2)CC1 (centres undefined)
    3.6%	24	-2%	23%	-1	-10%	3.7
Cc1ccc(NC(=O)N2CCN(S(=O)(=O)c3ccccc3)CC2)cc1
    nt	-2	-8%[15.4 µM]	8%	nt	-4%	-2.6
O=C(O)C1CCCN(S(=O)(=O)Cc2ccccc2)C1 (centres undefined)
    0.8%	0	-20%	1%	5	12%	4.7
CCC(Sc1nc(C)cc(C)n1)C(=O)O (centres undefined)
    0.4%	13	-33%[inhibitor]	2%	4	2%	0.2
C#CCN1C(=O)S/C(=C\c2ccc(-c3ccc(Cl)c(C(=O)O)c3)o2)C1=O
    -1.0%	0	-1%	-9%	nt	-25%	?
OC(CN1C2=NCCCN2c2ccccc21)c1ccc(Cl)cc1 (centres undefined)
    2.6%	nt	-1%	4%	0	6%	2.6
O=C(NCc1ccncc1)C(=O)N/N=C/c1ccccn1
    nt	-10	5%[15.4 µM]	?	-16	nt	-0.7
CCc1cc2c(SCC(=O)N3CC(=O)Nc4ccccc43)ncnc2s1
    -2.7%	3	-3%	-3%	2	-3%	4.4
COCn1ccnc1C(=O)c1ccco1
    -0.9%	nt	?	nt	3	nt	nt
O=C(COc1ccc(Br)cc1)Nc1ccccc1C(=O)N1CCOCC1
    -1.1%	-4	15%	7%	-3	-8%	1.9
CC(=O)N(c1ccc2oc(=O)sc2c1)S(=O)(=O)c1cccc2cccnc12
    nt	-1	-2%[15.4 µM]	-13%	-14	4%	nt
CCN1CCCC1Cn1cnc2c([nH]c3ccc(Cl)cc32)c1=O (centres undefined)
    -23%	-16	-5%	-9%	0	6%	3.5
Cc1onc(-c2ccccc2)c1C(=O)N(CC(C)C)c1c(N)n(CC(C)C)c(=O)[nH]c1=O
    -2.5%	4	4%	nt	2	13%	nt
O=C1OC[C@H]2CCCN2C(=O)[C@@H](CC(=O)N(CCO)Cc2ccccc2)C/C=C\CC[C@H]1Cc1ccc(F)cc1
    2.7%	nt	nt	nt	5	-3%	nt
O=C(COC(=O)C1CC1)Nc1ccc(Cl)cn1
    0.6%	0	-24%	nt	nt	7%	nt
O=C(NCCCO)c1cc2ccccc2[nH]1
    -3.7%	7	?	15%	5	3%	-1.4
COc1ccc(N2CCN(C(=O)CCCC3=NS(=O)(=O)c4ccccc4N3)CC2)cc1
    -0.8%	24	-1%	3%	-5	-9%	2.7
CN(C)c1ccc(/C=C/c2nnnn2-c2ccccc2)cc1
    -10%	-7	-12%	11%	-4	-20%	5.3
COCCN1Cc2cccc(C(=O)Nc3ccc(S(=O)(=O)N4CCCCC4)cc3)c2C1=O
    nt	-7	-2%[15.4 µM]	-3%	6	5%	0.2
CN(C)C(=O)C1C2NC(=S)N(c3ccccc3)C1(C)Oc1ccccc12 (centres undefined)
    0.4%	-3	-9%[15.4 µM]	12%	-15	-7%	-1.2
O=C(CCCCCN1C(=O)C2C3C=CC(C3)C2C1=O)Nc1nccs1 (centres undefined)
    -0.3%	1	33%	-1%	1	4%	6.3
COc1ccccc1CNC(=O)C(=O)NCC1CCCN1S(=O)(=O)c1cc(C)ccc1C (centres undefined)
    -1.6%	nt	3%	nt	0	nt	nt
Cn1c(NC(=O)c2cc(Cl)ccc2Cl)cc(=O)n(C)c1=O
    -2.2%	nt	-40%[inhibitor]	-3%	3	9%	2.1
CCCS(=O)c1nc(C)cc(C)c1S(C)(=O)=O (centres undefined)
    nt	-1	-1%	27%	-13	6%	-3.5
CC1(C)CC(NC(=O)C2CCN(S(=O)(=O)c3cccc(C(F)(F)F)c3)CC2)CC(C)(C)N1
    -1.2%	-19	-34%[inhibitor]	nt	1	8%	nt
CCOC(=O)c1ccc(NC(=O)c2c(C)[nH]c(C(=O)OCC)c2C)cc1
    -3.2%	-14	5%	3%	0	-20%	4.7
Clc1ccc(Cc2noc(-c3cccs3)n2)cc1
    0.7%	-4	-8%	-12%	43	1%	0.3
CC(=O)Nc1nonc1NC(=O)c1ccc(F)cc1
    -5.7%	7	43%	15%	1	1%	2.9
Clc1ccccc1-c1nnc2n1-c1ccccc1SC2
    nt	6	1%[15.4 µM]	15%	7	-4%	7.6

# In another format: 2 of the compounds above.
SMILES	ClpP mod	TRPV1 PAM	gsp ag	Sfp inh	CtBP-E1A blk	gsp antag	Menin-MLL FL inh
CC(=O)N(c1ccc2oc(=O)sc2c1)S(=O)(=O)c1cccc2cccnc12	nt	-1	-2%[15.4 µM]	-13%	-14	4%	nt
Clc1ccccc1-c1nnc2n1-c1ccccc1SC2	nt	6	1%[15.4 µM]	15%	7	-4%	7.6
